VDR inhibitor: Inhibitors of the vitamin D receptor (VDR): qHTS | Vitamin D3 receptor (Homo sapiens), P11473 | VDR-SRC2-3 peptide fluorescence polarization, 2 h | Potency, µM, for inactives: max response, negative = inhibition, actives largely listed as inhibitors | actives 0.93% (n = 400,000) | AID 504847, 2011; active = well fitted inhibition curve with a large enough effect; inconclusive = small, poorly fitted or top-dose-only effect, or another doubt; inactive = no such curve, though single readings can be large or run the other way; also: series mostly up to about 120 µM
Target sequence (P11473 whole entry, looked up): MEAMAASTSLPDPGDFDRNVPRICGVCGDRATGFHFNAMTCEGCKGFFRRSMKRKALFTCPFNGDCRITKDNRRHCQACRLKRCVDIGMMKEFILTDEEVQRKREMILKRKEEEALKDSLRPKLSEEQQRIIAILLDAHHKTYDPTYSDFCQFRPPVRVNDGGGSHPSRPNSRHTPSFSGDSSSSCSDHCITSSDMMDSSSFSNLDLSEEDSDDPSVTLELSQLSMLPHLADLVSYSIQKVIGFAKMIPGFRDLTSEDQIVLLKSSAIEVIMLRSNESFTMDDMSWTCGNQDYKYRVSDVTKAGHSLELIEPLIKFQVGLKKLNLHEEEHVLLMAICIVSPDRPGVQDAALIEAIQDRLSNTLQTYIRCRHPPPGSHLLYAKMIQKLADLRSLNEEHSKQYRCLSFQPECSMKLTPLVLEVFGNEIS
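After 23 nl compound addition and a short centrifugation, plates sat for 2 hours at ambient temperature; polarization of fluorescence then indicated loss of VDR binding to peptide SRC2-3.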
Active calls of the source: *; ? = inconclusive. % is scaled to controls: 0 for no effect and ±100 for the full control effect; potency is read from the fitted curve at half-maximal effect.

VDR inhibitor,compound
-1.9%,Cc1cccc(Cn2c(SCCN3CCOCC3)nc3c2c(=O)n(C)c(=O)n3C)c1
?,CN(C(=O)CCS(=O)(=O)c1cc2c(cc1Cl)NC(=O)CO2)C1CCCCC1
-8.1%,CC(C)(C)c1ccc(-n2ncc3c2CCCC3NC(=O)CN2CCCCC2=O)cc1 (centres undefined)
1.6%,CCn1c(SCC(=O)N/N=C/c2c[nH]c3ccccc23)nnc1-c1ccc(C)cc1
-24.2%,CN(C)c1ccc(C=C2C(=O)OC3(CCCC3)OC2=O)cc1
-23.9%,Cc1cc(OC(C)C(=O)Nc2sc3c(c2C(N)=O)CCCC3)ccc1Cl (centres undefined)
-2.9%,CCOC(=O)N1CCN(C(=O)c2ccc(S(=O)(=O)Nc3ccc(C)cc3)cc2)CC1
0.2%,Cc1cccc(NC(=S)N=Nc2c(O)n(C)c3ccc(S(=O)(=O)N4CCOCC4)cc23)c1
0.7%,CCc1ccc(/C=N/n2c(COc3ccccc3)n[nH]c2=S)cc1
5.6%,O=C(NCCCCN1CCN(c2cccc(Cl)c2Cl)CC1)c1ccc2c(c1)Cc1ccccc1-2
3.5%,CS(=O)(=O)NCc1ccc(C(=O)O)cc1
0.9%,O=C(Nc1ccncc1)c1ccc(F)cc1
2.6%,CCOc1ccccc1CNC(=O)C1CCN(S(=O)(=O)c2ccc3c(ccn3C)c2)CC1
17.9%,CCCCS(=O)(=O)NC1=NCN(CCO)CN1
-12.8%,CN(C(=O)c1ccccc1OCc1ccc(F)cc1)c1c(N)n(Cc2ccccc2)c(=O)[nH]c1=O
0.5%,O=C(CSc1nnc(Cc2cc(=O)[nH]c(=O)[nH]2)n1-c1ccccc1)N1CCCc2ccccc21
-11.0%,CC(C)OCCCn1c(=O)c2ccccc2n2c(CCC(=O)N3CCN(c4ccccn4)CC3)nnc12
10.7%,CCOC(=O)NC(=O)C(=CNc1cccc(OC)c1)C(=O)NC(=O)OCC
-13.7%,CC(=O)OCC1OC(n2c(-c3ccc(Cl)cc3)ccc(C#N)c2=S)C(OC(C)=O)C(OC(C)=O)C1OC(C)=O (centres undefined)
-3.2%,O=C(Nc1ccccc1C(=O)N1CCN(Cc2ccccc2)CC1)c1ccccn1

Continued, overlapping the part above by 3 compounds.
VDR inhibitor,compound
10.7%,CCOC(=O)NC(=O)C(=CNc1cccc(OC)c1)C(=O)NC(=O)OCC
-13.7%,CC(=O)OCC1OC(n2c(-c3ccc(Cl)cc3)ccc(C#N)c2=S)C(OC(C)=O)C(OC(C)=O)C1OC(C)=O (centres undefined)
-3.2%,O=C(Nc1ccccc1C(=O)N1CCN(Cc2ccccc2)CC1)c1ccccn1
16.6%,CC(C)[C@@H]1NC(=O)N(c2ccc(Oc3ccccc3)cc2)C1=O
20.3%,Cc1cc(=O)oc2cc(OCC(=O)N3CC(=O)Nc4ccccc43)c(Cl)cc12
?,Cc1cc(C)c2nc(/N=C(\N)NC(=O)c3ccccc3)nc(C)c2c1
1.6%,CC(C)(C)n1nnnc1C(c1cccs1)N1CCN(C(=O)c2ccco2)CC1 (centres undefined)
-12.2%,COc1cc(-c2nnc(NC(=O)CCS(=O)(=O)c3ccccc3)o2)cc(OC)c1OC
16.7%,Cn1c(=O)[nH]c(=O)c2c1nc(N1CCCC1)n2CCO
1.3%,CN(CCc1ccccn1)C1CC(=O)N(c2ccc(Cl)cc2)C1=O (centres undefined)
9.9%,COc1ccccc1C(=O)NC(C)c1nc2ccccc2[nH]1 (centres undefined)
-7.2%,COC(=O)c1ccc(CSc2nnc3c(n2)[nH]c2ccccc23)cc1
24.6%,CCOC(=O)CNC(=O)c1cccs1
0.2%,O=C(Nc1c(Cl)cccc1Cl)c1ccc(-c2ccccc2)cc1
-11.2%,COc1cc2c(C(F)(F)F)c(-c3ccsc3)oc(=O)c2cc1OC
-3.9%,Cc1sc(NC(=O)CN(Cc2ccc(F)cc2)C(=O)C(C)C)c(C(N)=O)c1C
-5.3%,COc1cc(NS(=O)(=O)c2ccc(NS(=O)(=O)c3ccc(C)cc3)cc2)nc(OC)n1
-0.3%,COc1nc(N/N=C/c2ccccc2F)nc(N2CCCCC2)n1
5.9%,O=C(CCC(=O)Nc1ccccc1Cl)NN=C1CCCC1
-5.4%,CCCCCCC(=O)OCC(=O)c1ccc2c(c1)NC(=O)CO2
10.6%,Cc1ccc(NC(=O)Cn2c(=O)n(-c3ccccc3)c(=O)c3c4c(sc32)CCCC4)cc1
-3.9%,COc1ccc2nc(-c3cccc(N)c3)[nH]c2c1
15.8%,COc1cccc(NC(=O)Cn2cc(C#N)c3ccccc32)c1
-3.6%,O=C(NNC(=O)c1cncc(Br)c1)c1ccncc1
?,COC(=O)c1c(-c2cccs2)csc1NC(=O)c1ccc(Cl)cc1
18.1%,COc1ccc(OC)c2[nH]c(=O)c(CCNC(=O)C3CCCCC3)cc12
-3.1%,O=C1CC(Nc2ccc(N3CCOCC3)cc2)C(=O)N1c1ccccc1F (centres undefined)
-6.7%,O=C(O)c1ccccc1-c1ccccc1C(=O)Nc1cccc2ccccc12
-12.0%,O=C(c1ccc(CS(=O)Cc2ccc(Cl)cc2)o1)N1CCN(c2cccc(Cl)c2)CC1 (centres undefined)
-1.0%,O=C(COC(=O)CCc1c[nH]c2ccccc12)Nc1ccc([N+](=O)[O-])cc1
-5.8%,Cc1ccc(S(=O)(=O)N(C)c2ccc(C(=O)N3CCC(C(N)=O)CC3)cc2)cc1
15.9%,O=C(CN(Cc1cccs1)C(=O)CNS(=O)(=O)c1ccc(Cl)cc1)NCc1ccco1
3.8%,CCc1noc(C)c1C(=O)Nc1nc2c(C)cccc2s1
-8.7%,CN(C)c1cc(N/N=C\c2ccccc2)nc(N(C)C)n1
-5.7%,Clc1ccc(CN2CCCCCCC2)cc1
14.8%,Cc1cccc(OCCSc2nc3ccccc3n2CC(=O)N2CCCCC2)c1C
-5.5%,COC(=O)c1cnn(-c2cc(Oc3cccc(C)c3)ncn2)c1N
-1.1%,CCCCCCn1c(C(C)NC(=O)c2ccco2)nc2ccccc21 (centres undefined)
1.9%,Cc1ccccc1CN(C)C(=O)COC(=O)c1ccc2[nH]c(C)c(C)c2c1
-1.0%,C=CCn1c(=N)n(CC(=O)O)c2ccccc21
-0.2%,CC(=O)Nc1ccc2c(c1)NC(=O)CC2
-14.1%,O=C(/C=C/c1cccs1)N1CCc2ccccc21
0.5%,CCN(CC)S(=O)(=O)c1ccc(NC(=O)COC(=O)CCc2cc(OC)c(OC)c(OC)c2)cc1
-9.5%,O=C(c1ccc(Cn2c(=S)[nH]c3ccc(Br)cc3c2=O)cc1)N1CCN(C2CCCCC2)CC1
12.6%,O=C(CNC(=S)N(Cc1ccccc1F)C1CCCCC1)NCCCN1CCOCC1
-9.6%,CC(C)(C)N1C(=O)[C@H]2[C@@H](c3ccc(Br)cc3)N3C(=O)N(c4ccc(Br)cc4)C(=O)[C@@]3(Cc3ccccc3)[C@H]2C1=O
10.1%,COc1ccc(-c2nnc(SCC(=O)Nc3ccccc3C)o2)cc1OC
-9.1%,COc1ccc(N2CCN(S(=O)(=O)c3cn(C)c(=O)n(C)c3=O)CC2)cc1
6.2%,Cc1ccccc1C(=O)OCc1cnc(Cl)s1
7.9%,Cn1c(=O)c2c(-c3ccccc3Cl)n(-c3cc(Cl)ccc3O)cc2n(C)c1=O
4.6%,COc1ccc(CNCc2ccc(C(=O)O)s2)cc1
10.6%,N#CCCn1cnc2ccccc21
-11.8%,Cc1ccnc(NS(=O)(=O)c2ccc(NC(=O)CCS(=O)(=O)c3ccccc3)cc2)n1

Retrieved by compound from the list above (3):
VDR inhibitor,compound
-5.5%,COC(=O)c1cnn(-c2cc(Oc3cccc(C)c3)ncn2)c1N
-23.9%,Cc1cc(OC(C)C(=O)Nc2sc3c(c2C(N)=O)CCCC3)ccc1Cl (centres undefined)
?,Cc1cc(C)c2nc(/N=C(\N)NC(=O)c3ccccc3)nc(C)c2c1

Continuation:
VDR inhibitor,compound
-15.9%,Nc1ncnc(Nc2ccc(F)cc2)n1
-7.5%,CC(C)(C)NC(=O)C(c1cccs1)N(C(=O)c1csnn1)c1ccccc1F (centres undefined)
1.8%,COCCN1CCN(Cc2cn[nH]c2-c2cc3ccccc3o2)CC1
-0.1%,O=C(CCC(=O)c1cccs1)OCC(=O)N1CCN(S(=O)(=O)c2ccccc2)CC1
1.5%,O=C(COc1ccccc1Cl)NCCCNC(=O)c1ccccn1
5.6%,CCc1ccc2[nH]c(=O)c(CN(Cc3ccccc3)C(=O)Nc3ccccc3OC)cc2c1
-10.1%,COc1cccc(-n2c(=O)c3c4c(sc3n(Cc3ccc(F)cc3Cl)c2=O)CCCC4)c1
-4.7%,O=C(CCS(=O)(=O)c1ccc(Br)cc1)NC1CCCCCC1
-10.8%,Oc1ccc(C2Nc3cccc4cccc(c34)N2)c(O)c1
5.1%,O=C(NC1CCCC1)C1CC(=O)N(C2CCCCCCC2)C1 (centres undefined)
-6.4%,CC(C)Oc1ccc(S(=O)(=O)N2CCOCC2)cc1NC(=O)c1cccc(S(=O)(=O)N2CCCC2)c1
19.3%,CC(=O)NCCNc1ccc([N+](=O)[O-])cc1C#N
-20.5%,CCCCC(=O)N/N=C/c1ccc(N2CCOCC2)c([N+](=O)[O-])c1
-23.8%,Cn1c(CC(=O)Nc2ccccc2F)nnc1SCC(=O)N1CCOCC1
-2.1%,CCOC(=O)C1C(=O)C(=O)N(Cc2ccccc2)C1C(=O)OCC (centres undefined)
-6.4%,Cc1nnc2ccc(-c3ccc(NS(=O)(=O)c4ccccc4)cc3)nn12
-16.7%,COCCNc1nnc(SCC(=O)Nc2cc(-c3ccccc3)nn2-c2ccccc2)s1
-1.4%,Cc1ccc(-n2ncc3ccccc3c2=O)cc1Cl
-14.5%,CC1CCCCN1S(=O)(=O)c1ccc(C(=O)Nc2ccccc2-c2nc3ccccc3[nH]2)cc1 (centres undefined)
-0.3%,O=C(NCCS(=O)(=O)N1CCN(c2ccc(F)cc2)CC1)c1ccc(Br)o1
8.8%,CSc1nc(O)c(C(c2ccccc2Cl)c2c(O)nc(SC)[nH]c2=O)c(=O)[nH]1
-6.3%,CN(C(=O)c1cccc(NC(=O)Cc2ccc(NC(=O)C3CCCN(S(=O)(=O)c4cccc([N+](=O)[O-])c4)C3)cc2)c1)C1CCCCC1 (centres undefined)
-3.7%,O=C1OCCN/C1=C\C(=O)c1ccccc1
13.1%,CCOc1ccc(-n2c(SCC(=O)Nc3cc(C)ccc3C)nc3c([nH]c4ccccc43)c2=O)cc1
2.6%,CN(C)N=Nc1nc2c([nH]1)c(=O)n(C)c(=O)n2C
9.0%,O=C(NCN1CCN(c2ccccc2F)CC1)c1ccccc1
10.7%,COc1ccc(NC(=O)c2ccc(-c3ccc([N+](=O)[O-])cc3)o2)cc1
-15.7%,O=C(NN=C1CCCCC1)Nc1ccccc1Cl
-7.4%,CCOC(=O)N1CCN(C(=O)Cn2nc(-c3ccc(Cl)cc3)ccc2=O)CC1
-25.2%,O=C(CC1SC(N2CCCC2)=NC1=O)Nc1ccc(C(=O)Nc2ncccc2O)cc1 (centres undefined)

Two entries from above in a different format:
canonical_smiles: O=C(NCN1CCN(c2ccccc2F)CC1)c1ccccc1
  VDR inhibitor = 9.0%

canonical_smiles: COc1ccc(NC(=O)c2ccc(-c3ccc([N+](=O)[O-])cc3)o2)cc1
  VDR inhibitor = 10.7%

Additional compounds follow:
VDR inhibitor,compound
2.9%,CC(C)[C@H](NC(=O)c1cccc(S(=O)(=O)N2CCOCC2)c1)C(=O)OCC(=O)Nc1cccc(Br)c1
-15.6%,O=C(Nc1nc2c(s1)CCCC2)c1ccc(S(=O)(=O)N2CCCc3ccccc32)cc1
-14.4%,CCOC(=O)c1cnc2ccc(OCC)cc2c1N1CCN(c2ccccc2F)CC1
9.5%,O=C(CSc1nccn1Cc1ccccc1)NCc1ccco1
-3.2%,CCCCNC(=O)c1cc2c(=O)n3cccc(C)c3nc2n(CCN2CCOCC2)c1=N
-2.4%,CC(NC(=O)CCSc1nc(-c2ccc3c(c2)OCO3)cc(C(F)(F)F)n1)c1ccccc1 (centres undefined)
0.5%,CC(=O)N(Cc1cccs1)Cc1cc2cc(C)c(C)cc2nc1Cl
9.5%,COc1ccc(NC(=O)N2CCCc3cc(C)ccc32)c(OC)c1
1.0%,COc1ccc2c(CCNC(=O)Nc3ccccc3)c[nH]c2c1
-3.1%,Nc1sc(-c2ccccc2)cc1C(=O)N/N=C/c1ccc(Cl)cc1
4.3%,Cc1ccc(C)c(NC(=O)N2CCN(C(=O)c3nsc4ccccc34)CC2)c1
7.2%,Cc1c(C)c2ccc(OC(C)C(=O)NCCN3CCOCC3)c(C)c2oc1=O (centres undefined)
15.7%,Cc1nc(NS(=O)(=O)c2ccccc2)sc1NC(=O)OCCN(C)C
-10.8%,Cc1nn(Cc2ccc(C(=O)N/N=C/c3ccncc3)o2)c(C)c1Cl
-7.1%,CC(=O)c1c(N2CCOCC2)nc(=S)n(-c2ccc([N+](=O)[O-])cc2)c1C
-1.6%,Cc1ccc(-n2c(=O)c3ccccc3n(CC(=O)C(C)(C)C)c2=O)cc1
-8.5%,CCC(CO)Oc1cc(NCc2ccc(C)c(C)c2)c2ncn(C(C)C)c2c1 (centres undefined)
5.9%,CN1CCN(C2=Cc3cc(Cl)ccc3Sc3cc(F)ccc32)CC1
-9.3%,CCC(=O)c1ccc(OCC(=O)OCC(=O)Nc2cccc(S(=O)(=O)N3CCOCC3)c2)cc1
11.3%,CCOc1ccc(N(Cc2cc3cc(C)ccc3[nH]c2=O)C(=O)c2cccc(Cl)c2)cc1
11.4%,CCOc1ccc(C(=O)O)cc1OC
-1.6%,CC1CCC2C(=O)N(c3ccc(C(=O)Oc4cccc5cccnc45)cc3)C(=O)C2C1 (centres undefined)
-5.2%,COc1ccccc1Nc1cc(C(=O)NCc2cccs2)c2ccccc2n1

Bioassay records: PubChem BioAssay, National Center for Advancing Translational Sciences (NCATS)

The list is partial, so the mix of outcomes need not match the whole.
